# Bioassay records as filed in PubChem BioAssay.
# CtBP-E1A blk: blocks the CtBP interaction with E1A; AlphaScreen GST-E1A/His-CtBP binding, 1536-well; active compounds read low; control for the full effect not named in the record; activity change, % (test concentration not listed); hit rate 0.49% among 340,000; AID 651724; in the data active means activity change below about -65%; inconclusive means about -30% to -65%; inactive means above about -30%; also: % is scaled to controls: 0 for no effect and ±100 for the full control effect
#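 Protein mix (5X: 125 nM each GST-E1A, His-CtBP) was incubated with pinned compound 2 h at 37 deg C in dark, in 50 mM Tris pH 8.0 buffer with 300 mM NaCl. Glutathione donor and nickel acceptor beads followed; AlphaScreen signal read after 1 h.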
# ClpP mod: qHTS Assay for Activators of ClpP; ATP-dependent Clp protease proteolytic subunit (Bacillus subtilis (strain 168)), P80244; purified B. subtilis ClpP, FRET peptide cleavage, 20 min; Potency, µM (doses to about 57.5 µM), inactives show at the top dose activity change, negative = active; hit rate 1.9% among 340,000; active = well fitted falling curve with a large enough effect; inconclusive = small, poorly fitted or top-dose-only effect; inactive = no such curve, though single readings can be large or run the other way; also: potency is read from the fitted curve at half-maximal effect; the source files actives as falling curves though it sought activators and does not explain the sign; nearly all actives have a fitted effect of over 65% in size; many hits overshoot -100%
# Target sequence (P80244 whole entry, looked up): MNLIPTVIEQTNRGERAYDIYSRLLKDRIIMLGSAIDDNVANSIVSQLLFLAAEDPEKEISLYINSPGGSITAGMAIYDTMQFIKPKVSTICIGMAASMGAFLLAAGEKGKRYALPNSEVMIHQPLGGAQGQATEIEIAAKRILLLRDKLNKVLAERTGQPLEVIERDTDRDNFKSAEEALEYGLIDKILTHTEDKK
#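 Buffer: 100 mM Tris/HCl pH8, 100 mM KCl, 0.05% low protease BSA, 2.5% glycerol, 0.01% Tween-20. ClpP 10 microg/mL final; 20 min RT; delta FRET normalized to ADEP and DMSO controls.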
# The depositor's hits bear a star; ? = inconclusive. This is a subset (hit frequency here may not be typical).
SMILES,CtBP-E1A blk,ClpP mod
O=C(NCc1ccc(F)cc1)c1cc(C2CCCCN2C(=O)C2CCCCC2)on1 (stereo unspecified),1,0.6%
O=C1NC[C@@H](CCCCN2C[C@H](Cc3ccc(O)cc3)N(CCC3CCCCC3)C(=O)C2=O)N(CCC2CCCCC2)C1=O,-4,-1.5%
CCOC(=O)C1CCN(C(=O)c2[nH]c(C(F)(F)F)nc2-c2ccccc2)CC1,-2,-2.2%
COCCCN1C(=O)C(CC(=O)NC2CCCC2)CC(C(=O)N(C(C)C)C(C)C)=C1C (stereo unspecified),2,-1.8%
CCCC/C=C/c1cccc2nncn12,3,?
O=C(c1[nH]c(C(F)(F)F)nc1-c1ccccc1)N1CCN(c2ncccc2C(F)(F)F)CC1,-3,-8.5%
COc1cc(CN2C[C@@H](CO)O[C@@H](n3cnc4c(N5CCOCC5)ncnc43)C2)cc(OC)c1OC,1,-0.1%
O=S(=O)(NCC[C@@H]1CC[C@H](NS(=O)(=O)c2cccc(F)c2)[C@@H](CO)O1)c1cccc(F)c1,-1,-6.5%
CN1CCN(C(=O)C[C@@H]2C=C[C@H](NS(=O)(=O)c3cccc(F)c3)[C@@H](CO)O2)CC1,-8,0.9%
O=C1OC(C(Cl)(Cl)Cl)Nc2ccccc21 (stereo unspecified),8,4.9%
COc1ccc(Cc2c(-c3ccccc3)nc3ccc(Cl)cn23)c(C)c1,-4,-16%
O=C(c1cc(C2CCCCN2S(=O)(=O)Cc2ccccc2)on1)N1CCOCC1 (stereo unspecified),1,0.9%
Cc1cc(C)cc(-n2c3ccc(NC(=S)NC4CCCCC4)cc3c(=O)n2C)c1,-8,4.0%
Cc1ccccc1-c1csc(C(O)c2ccccc2)n1 (stereo unspecified),-18,-2.3%
COCCNC(=O)C1CCCN(C(=O)c2oc3ccccc3c2C)CC1 (stereo unspecified),8,-1.0%
CCNC(=O)C1(C)CCCN1C(=O)c1ccc(N(C)C)cc1 (stereo unspecified),1,0.3%
COc1ccc(NC(=O)c2sc(=O)n(Cc3cccc(C(F)(F)F)c3)c2C)cc1OC,-26,1.4%
CCOC1=C2CN(S(=O)(=O)c3ccc(C)cc3)[C@@H](c3cccc4ccccc34)C[C@H]2[C@H]2C(=O)N(c3ccccc3)C(=O)[C@H]2C1,10,-2.1%
O=c1[nH]c(=S)[nH]c2c1[C@H](C1CC1)O[C@H](CCc1ccccc1)C2,2,3.2%
O=c1cc(CN2CCN(c3ccc(Cl)c(Cl)c3)CC2)c2c(ccc3ccccc32)o1,-3,-19%
O=S1(=O)C[C@@H](N2CCN(CC3CC3)CC2)[C@H](COCc2ccccc2)N1,3,0.4%
COc1ccc(-c2cccc(N3CCN(c4ccccn4)CC3)n2)cc1OC,-12,5.1%
Cc1ccc(CN2C(=O)c3ccccc3C2c2nnnn2C(C)C)cc1 (stereo unspecified),4,1.4%
COC(=O)C[C@@H]1C=C[C@@H](NC(C)=O)[C@@H](CO)O1,7,1.9%
Cn1c(=O)c2c(-c3ccccc3)n(-c3cccc(O)c3)cc2n(C)c1=O,-26,?

# Of the compounds above, 3 have an NH in an aromatic ring.
SMILES,CtBP-E1A blk,ClpP mod
CCOC(=O)C1CCN(C(=O)c2[nH]c(C(F)(F)F)nc2-c2ccccc2)CC1,-2,-2.2%
O=C(c1[nH]c(C(F)(F)F)nc1-c1ccccc1)N1CCN(c2ncccc2C(F)(F)F)CC1,-3,-8.5%
O=c1[nH]c(=S)[nH]c2c1[C@H](C1CC1)O[C@H](CCc1ccccc1)C2,2,3.2%

# Following part:
SMILES,CtBP-E1A blk,ClpP mod
CCOC(=O)C1(C)CCCN1C(=O)c1sccc1C (stereo unspecified),-8,-0.3%
CN(C)C(=O)c1cccc(-c2cnc3cccnn23)c1,3,4.9%
COc1ccc2c(c1)C(CC(C)=O)N(c1ccc(-c3cccs3)cc1)C(c1ccsc1)=C2 (stereo unspecified),19,8.9%
CC(NC(=O)c1c(N)[nH]c(C(=O)c2ccccc2)c1-c1ccccc1Br)c1cccc2ccccc12 (stereo unspecified),-16,2.3%
COc1cc(CN2C[C@@H](CO)O[C@@H](n3cnc4c(NCc5ccc(F)cc5)ncnc43)C2)cc(OC)c1OC,1,-0.3%
OCCNc1ncnc2c1ncn2[C@H]1CN(Cc2ccco2)C[C@@H](CO)O1,0,-4.9%
CC(=O)c1cc2cccc(OC3(C)CCN(Cc4ccc5ccccc5c4)C3)c2o1 (stereo unspecified),-17,-17%
O=C(Nc1cc(C(F)(F)F)cc(C(F)(F)F)c1)O[C@@H]1c2ccccc2[C@@H]2Cc3csc[n+]3[C@H]12,-1,2.0%
O=S1(=O)N[C@H](Cc2ccccc2)COc2cccc(N3CCC[C@H]3CO)c21,0,-2.2%
CCCCCCN1CCN(C2CN(CCc3ccccc3)S(=O)(=O)C2)CC1 (stereo unspecified),1,0.2%
COC(=O)/C=C1\OC(C2CC2)c2ccccc21 (stereo unspecified),-23,-1.9%
CCCS(=O)(=O)NC(=O)C1(C)CCN(C(=O)C2(c3ccc(Cl)cc3)CCCC2)C1 (stereo unspecified),-7,0.4%
CC(=O)Nc1ccc(-c2ccnc3c2CC(C(=O)Nc2ccccc2)O3)cc1 (stereo unspecified),0,5.0%
CCCN(C)C1CN(Cc2cn(Cc3cccc(C(F)(F)F)c3)nn2)S(=O)(=O)C1 (stereo unspecified),-21,-1.7%
CCc1nc2c(OCc3ccccc3C)cccn2c1N(C)C(=O)CC(C)C,-18,-0.4%
Nc1nc(=O)n(C2OC(CO)C(O)C2O)cc1F (stereo unspecified),3,0.3%
Cc1ccc(C(O)c2ncc(-c3ccc4ccccc4c3)[nH]2)cc1 (stereo unspecified),?,4.6%
O=c1cc(CN2CCCCC2)c2ccccc2o1,5,-0.7%
CC(C)c1ccc(CC(=O)N2CCC2(C)C(=O)NCCC#N)cc1 (stereo unspecified),-7,0.8%
CC(C)c1ccc(NC(=O)C2(C)Cc3c(-c4ccc(N(C)C)cc4)ccnc3O2)cc1 (stereo unspecified),-17,4.6%
COc1ccccc1C(=O)N1CCN(C(=O)[C@H]2O[C@@H](n3cnc4c(N)ncnc43)[C@H](O)[C@@H]2O)CC1,-1,0.6%
CCCC(=O)Nc1c(-c2ccccc2)[nH][nH]c1=O,2,-2.3%
Cc1ccc(OCCCN2CCC(C(O)(c3ccccc3)c3ccccc3)CC2)cc1,-1,-3.0%
Cc1cnc(C)c(Nc2nc(C(N)c3ccccc3)cs2)n1 (stereo unspecified),-66*,-9.9%
CC1(C)OC(=O)C2=C(C[C@@H](C3CCCCC3)O[C@H]2c2ccc(F)cc2)O1,0,-2.5%
# (list continues)
SMILES,CtBP-E1A blk,ClpP mod
COc1ccc(CNC(=O)c2sc(=O)n(Cc3ccc(C)cc3)c2C)cc1,-3,-3.6%
CC(C)C(N)c1csc(NC(=O)Nc2cccc(C(F)(F)F)c2)n1 (stereo unspecified),-8,0.2%
CC(=O)Nc1ccc(NC(=O)c2csc([C@@H]3O[C@H](CO)[C@H](O)[C@H](O)[C@H]3O)n2)cc1,6,1.0%
Cc1nc(C(F)(F)F)ccc1C(=O)N1CCC1(C)C(=O)NS(=O)(=O)c1cccc(Cl)c1 (stereo unspecified),5,1.7%
CC1(C(=O)NCc2ccccc2)CSCC(=O)N1CCOc1ccccc1 (stereo unspecified),7,-2.3%
CC(C)NC(=O)Nc1nnc([C@@H]2C[C@H](O)[C@@H](CO)O2)s1,0,-1.1%
CN1OC[C@@H]2CN(C(=S)NCCc3ccccc3)[C@H](c3ccccc3Br)C[C@@H]21,-5,0.7%
COc1cc(OC)nc(Nc2nc(C(N)Cc3ccc(Cl)cc3)cs2)n1 (stereo unspecified),-14,-5.7%
CC(C)N1CCC1(C)C(=O)Nc1ccc2cn[nH]c2c1 (stereo unspecified),8,0.0%
CC(=O)Nc1cccc(-c2ccnc3c2CC(C)(C(=O)NCc2cccs2)O3)c1 (stereo unspecified),-2,-27%
COc1cc(Nc2cccc(-c3ccccc3)n2)cc(OC)c1OC,-8,-9.6%
N#Cc1ccc(OCc2c(-c3ccccc3)nnn2CC(=O)O)cc1,10,-2.2%
O=C(CC[C@H]1O[C@@H](n2ccc(=O)[nH]c2=O)[C@H](O)[C@@H]1O)NCC1CCCO1 (stereo partly specified),4,0.8%
COc1ccc(NC(=O)c2cc(-c3cc(F)ccc3OC(C)C)n[nH]2)c(C)c1,3,-1.5%
O=C(Nc1ccccc1Cl)c1cc(C2CCCN(S(=O)(=O)c3cccs3)C2)on1 (stereo unspecified),5,-7.2%
O=C(Nc1ccccc1Cl)c1cc(C2CCCCN2S(=O)(=O)c2ccc(F)cc2F)on1 (stereo unspecified),7,-9.4%
CN(Cc1ccccc1)C(=O)[C@@H]1CCCN1C(=O)[C@@H]1CCCN1C(=O)c1ccccc1,-5,2.2%
Cc1cc2nc(C(C)(C)C)c(Cc3ccccc3C(F)(F)F)n2c(C)c1Br,1,-3.9%
COc1cc(Cl)c(CNC[C@H]2O[C@@H](n3cnc4c(=O)[nH]c(N)nc43)[C@H](O)[C@@H]2O)c(Cl)c1O,0,0.4%
O=S1(=O)CC(N2CCN(CCO)CC2)CN1Cc1ccc(F)cc1 (stereo unspecified),1,-4.1%
Cc1cc(-c2ccc(F)cc2)n2ncc(-c3ccccc3)c2n1,0,3.0%
COC(=O)[C@@]12C[C@@H](CC(=O)NCC34CC5CC(CC(C5)C3)C4)C(=O)N(Cc3cccc4ccccc34)C1=CCC(C)(C)C2,1,-2.8%
O=C(C[C@@H]1C=C[C@@H](NC(=O)c2cccnc2)[C@@H](CO)O1)NCc1ccncn1,0,-2.6%
Cc1cccc(-c2ccc(O)cc2CN2CCN(c3ncc(Cc4ccccc4)cn3)CC2)c1,0,-6.7%
CCNC(=O)C1(C)CCCN(C(=O)c2ccc(F)c(C)c2)C1 (stereo unspecified),8,-1.7%

# 6 structures already listed, arranged by molecular weight, low to high:
SMILES,CtBP-E1A blk,ClpP mod
CC(C)N1CCC1(C)C(=O)Nc1ccc2cn[nH]c2c1 (stereo unspecified),8,0.0%
N#Cc1ccc(OCc2c(-c3ccccc3)nnn2CC(=O)O)cc1,10,-2.2%
O=S1(=O)CC(N2CCN(CCO)CC2)CN1Cc1ccc(F)cc1 (stereo unspecified),1,-4.1%
COc1cc(OC)nc(Nc2nc(C(N)Cc3ccc(Cl)cc3)cs2)n1 (stereo unspecified),-14,-5.7%
CC(=O)Nc1ccc(NC(=O)c2csc([C@@H]3O[C@H](CO)[C@H](O)[C@H](O)[C@H]3O)n2)cc1,6,1.0%
Cc1cccc(-c2ccc(O)cc2CN2CCN(c3ncc(Cc4ccccc4)cn3)CC2)c1,0,-6.7%

# Going on with the list.
SMILES,CtBP-E1A blk,ClpP mod
CCc1nc2ccc(C(=O)Nc3cccc(OCC(=O)N(C)C)c3)cn2c1N(C)Cc1cc2ccccc2s1,-8,-0.3%
CC(C)CCC[C@](C)(O)c1ccc(C(=O)O)cc1O,6,-17%
CCc1nc2ccc(C(=O)Nc3cc(-c4ccccc4)ccc3OC)cn2c1N(C)Cc1ccc(OC)cc1,-11,-9.1%
Nc1ccc(C=Cc2ccc(N)cc2)cc1,-12,4.3%
CC(=O)c1sc(Nc2ccc3c(c2)OCO3)nc1C,0,-3.9%
CCc1nc2c(OCC(N)=O)cccn2c1N(C)C(=O)c1ccc(OC)cc1,-11,-32%
Cc1ccc(-c2cnc3cccnn23)cc1F,27,4.2%
Cc1c(C(=O)N2CCCCCC2(C)C(=O)NCC(C)C)oc2ccccc12 (stereo unspecified),-17,-1.3%
CC=CCn1c(SCCCc2ccccc2)nc2c1c(=O)[nH]c(=O)n2C,-6,-0.2%
OC(c1ccccc1)c1ncc(-c2ccc(Cl)cc2)[nH]1 (stereo unspecified),-6,1.5%
O=C(NC(c1ccccc1)c1cnccn1)C1CCN(CCCOc2ccccc2)CC1 (stereo unspecified),-13,-5.6%
CC(=O)NC(c1ccccc1)c1nc(-c2cccs2)cs1 (stereo unspecified),-10,-2.4%
COC(=O)[C@]12CCCCC=C1N(Cc1ccccc1)C(=O)[C@H](CC(=O)NCCCCc1ccccc1)C2,2,0.7%
CCc1nc2ccc(C(=O)NCCCN3CCCC3=O)cn2c1N(C=O)CC,6,-13%
CC(C)(C)C(=O)Nc1nnc([C@H]2C[C@H](O)[C@@H](CO)O2)s1,-5,0.1%
Cc1cc(N2CCN(C(C(=O)NC3CCCC3)c3ccc(F)cc3)CC2)c2ccccc2n1 (stereo unspecified),-6,-4.0%
Cc1nc2ccccc2n1C(C)c1nc2ccccc2n1CC(=O)c1ccsc1 (stereo unspecified),0,0.2%
CN(C)c1ccc(NC(=O)Nc2ccc3c(c2)c(=O)n(C)n3Cc2ccc(Cl)cc2)cc1,?,-0.5%
O=C1NC[C@H](CCCCN2C[C@H](Cc3ccc(O)cc3)N(CCC3CCCCC3)C(=O)C2=O)N(CCc2ccccc2)C1=O,0,0.3%
CCCCCCCCN1C(=O)[C@H](CC(=O)NCCc2ccccc2OC)C[C@@]2(C(=O)OC)CC(C)(C)CC=C12,2,-0.6%
CN(C)c1cccc(Nc2ccc(-c3ccc(OC(F)(F)F)cc3)cn2)c1,-8,-28%
CC(C)c1ccc([C@@H]2O[C@H](C)CC3=C2C(=O)OC(C)(C)O3)cc1,10,-1.6%
